Screening data (PubChem BioAssay)
Sfp PPTase inh – qHTS Assay for Inhibitors of Bacillus subtilis Sfp phosphopantetheinyl transferase (PPTase). 4'-phosphopantetheinyl transferase ffp (Bacillus subtilis), Q9F4F7. Biochemical Sfp PPTase activity, qHTS. Potency, µM, inactives show max response, negative = inhibition, usual class: inhibitors. 310,000 tested, 3.5% active; active means well fitted inhibition curve with a large enough effect; inconclusive means small, poorly fitted or top-dose-only effect, or another doubt; inactive means no such curve, though single readings can be large or run the other way;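 further: the enzyme is Sfp with the accession as filed and its product quenches rhodamine fluorescence; potency means the concentration at half of the fitted maximal effect; 0% = enzyme reaction without inhibitor and -100% = no enzyme wells; top concentration of the series not given in the record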
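Compounds were incubated with enzyme (final 15 nM) for 15 min at room temperature before substrate addition started the reaction. Fluorescence at 525 nm excitation, 598 nm emission was recorded immediately and after 30 minutes.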
TRPV1 PAM – HTS Assay for Compounds that Act as Potentiators of the Vanilloid Receptor 1 | Transient receptor potential cation channel subfamily V member 1 (Homo sapiens), Q8NER1 | TRPV1-expressing cells, Fluo-8 calcium influx, capsaicin EC20 potentiation; host cell line not named in the record; control for the full effect not named in the record | potentiation, % at 8.33 µM | 320,000 tested, 0.02% active; active means potentiation above 80%; inconclusive means 30% to 80%; inactive means below 30%; further: 0% is about no effect
Target sequence (Q8NER1 whole entry, looked up): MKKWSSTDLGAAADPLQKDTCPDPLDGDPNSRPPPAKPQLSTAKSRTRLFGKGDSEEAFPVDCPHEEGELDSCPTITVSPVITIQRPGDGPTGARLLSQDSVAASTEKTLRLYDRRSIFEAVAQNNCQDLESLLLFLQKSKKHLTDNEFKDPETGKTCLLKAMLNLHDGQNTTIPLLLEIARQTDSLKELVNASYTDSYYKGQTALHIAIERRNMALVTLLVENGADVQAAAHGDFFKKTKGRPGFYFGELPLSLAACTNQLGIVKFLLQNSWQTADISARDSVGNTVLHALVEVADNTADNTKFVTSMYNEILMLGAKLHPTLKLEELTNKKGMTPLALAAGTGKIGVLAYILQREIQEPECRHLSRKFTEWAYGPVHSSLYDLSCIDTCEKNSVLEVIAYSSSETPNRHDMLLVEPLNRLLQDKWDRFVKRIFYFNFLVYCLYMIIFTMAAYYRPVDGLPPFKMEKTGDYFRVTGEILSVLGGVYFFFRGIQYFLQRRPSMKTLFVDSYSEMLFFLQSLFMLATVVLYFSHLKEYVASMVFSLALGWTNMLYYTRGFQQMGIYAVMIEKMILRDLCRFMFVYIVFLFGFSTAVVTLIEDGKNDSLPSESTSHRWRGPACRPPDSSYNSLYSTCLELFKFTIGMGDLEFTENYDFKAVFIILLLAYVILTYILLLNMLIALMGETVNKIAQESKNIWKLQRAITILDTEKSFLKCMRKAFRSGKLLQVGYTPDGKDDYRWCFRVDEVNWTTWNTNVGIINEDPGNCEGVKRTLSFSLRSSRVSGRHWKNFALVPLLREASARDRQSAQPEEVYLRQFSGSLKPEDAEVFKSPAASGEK
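TRPV1-expressing cells were cultured overnight at 35.5C and loaded with Fluo-8 calcium dye for 40 to 90 min at room temperature. After a 10 s baseline, compound was added and calcium influx was read kinetically for 3 min (ex 480/em 520 nm).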
D2 ag – Beta-Arrestin HTS for Positive Allosteric Modulators of the Human D2 Dopamine Receptor: Agonists; 360,000 tested, 0.084% active; D(2) dopamine receptor (Homo sapiens), P14416; DiscoveRx PathHunter D2 beta-arrestin, luminescence, 90 min; 100% = 57 uM dopamine signal; activation, % (concentration not given with the values); in the data active = activation above about 40%; inconclusive = about 15% to 40%; inactive = below about 15%; further: compound concentration not given in the record; the text of the record calls up to 30% inactive
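DiscoveRx PathHunter D2 beta-arrestin cells (2,100/well) attached overnight, then compound-stimulated 90 min at 37 C in HBSS/10 mM HEPES/0.1% Tween-20 buffer; beta-galactosidase complementation read by luminescence after 1 h at ambient temperature. Dopamine 57 uM final (EC100) as control.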
PINK1 modulator – A Quantitative High throughput Screen to Identify Chemical Modulators of PINK1 Expression. 410,000 tested, 0.2% active. AID 624263, 2012. PINK1 immunofluorescence, high-content cytometry, 24 h. Potency, µM (titrated, usually from 76.6 µM), without a hit: top-dose activation (PINK1 increase), hits mostly activators; active = well fitted activation curve with a large enough effect; inconclusive = small, poorly fitted or top-dose-only effect; inactive = flat fitted curve, though single readings scatter; cell line not stated here;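 further: potency means the concentration at half of the fitted maximal effect; % of control where 0% means no effect; nearly all actives have a fitted effect of over 65% in size; a mitochondrial uncoupler was the plate control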
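Cells are seeded, rested 12 hours, then given compound at five concentrations or DMSO for 24 hours. After fixation, blocking and antibody staining, PINK1 amount and mitochondrial localization are scored; CCCP serves as control.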
Six1-Eya2 blk – qHTS Assay for Inhibitors of the Six1/Eya2 Interaction. 360,000 tested, 0.56% active. AlphaScreen GST-Six1/His-Eya2 binding, biochemical; stronger effect = lower value; control for the full effect not named in the record. AID 651725, 2012. activity change, % (no concentration beside the values). Homeobox protein SIX1 (Homo sapiens) + Protein phosphatase EYA2 (Homo sapiens), …; in the data active = activity change below about -65%; inconclusive = about -30% to -65%; inactive = above about -30%; further: on the % scale 0 is the no-effect control and ±100 the full control effect; compound concentration not given in the record
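Compounds are tested against tagged Six1 and Eya2 proteins bridged by glutathione donor and nickel acceptor beads; after a one-hour incubation at 37 °C without light, AlphaScreen emission is recorded.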
D2 PAM – Beta-Arrestin HTS for Positive Allosteric Modulators of the Human D2 Dopamine Receptor: Potentiators. D(2) dopamine receptor (Homo sapiens), P14416. DiscoveRx D2 beta-arrestin cells, luminescence, 90 min; 100% = 57 uM dopamine signal. potentiation, % (concentration not given with the values). 360,000 tested, 0.23% active; active = potentiation of 50% or more; inconclusive = 30% to 50%; inactive = 30% or less;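 further: compound concentration not given in the record; tested on top of an EC20 dose of dopamine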
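PathHunter beta-arrestin assay in DiscoveRx D2 cells. Compounds were added with an EC20 of dopamine (50 nM final) for 90 min at 37 deg C. Luminescence was read 1 h after detection reagent, with 57 uM dopamine as the EC100 control.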
CtBP-E1A blk – qHTS Assay for Inhibitors of the CtBP/E1A Interaction | activity change, % (no concentration beside the values) | CtBP / adenovirus E1A interaction (AlphaScreen) | AlphaScreen GST-E1A/His-CtBP binding, 1536-well; stronger effect = lower value; control for the full effect not named in the record | AID 651724, 2012 | 340,000 tested, 0.49% active; in the data active means activity change below about -65%; inconclusive means about -30% to -65%; inactive means above about -30%; further: on the % scale 0 is the no-effect control and ±100 the full control effect; compound concentration not given in the record
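GST-E1A and His-tagged CtBP (125 nM each as 5X stock) were preincubated with pin-transferred compound for 2 h at 37 °C in the dark, then glutathione donor and nickel acceptor beads were added for 1 h before AlphaScreen reading.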
* = called active by the depositor; ? = inconclusive; / = no result given; & = joins results of further samples; [ ] = dose if it differs, or a comment. Compounds were not picked by outcome; about 3.7% have a hit in one of these screens.

SMILES	Sfp PPTase inh	TRPV1 PAM	D2 ag	PINK1 modulator	Six1-Eya2 blk	D2 PAM	CtBP-E1A blk
COc1cc(C(=O)N2CCN(C(=O)c3cccc4ccccc34)CC2)cc(OC)c1OC	14%	7	-2.6	2.8%	-2	-9	7
CCC1=NN2C(=N)/C(=C\c3cccn3-c3ccc(C)c(C)c3)C(=O)N=C2S1	-23%	-4	1.6	-0.5%	-11	-7	-1
COc1ccc(Cl)cc1C(=O)NCC(c1ccco1)N1CCCC1 (stereo not drawn)	15%	6	-2.3	20%[38.3 µM]	0	-20	5
CNC(=O)C(=O)NCCN1CCN(S(=O)(=O)c2ccc3ccccc3c2)CC1	5%	-5	3.0	-0.8%	5	-2	4
Cc1cc(NS(=O)(=O)c2ccc(Nc3nc(-c4ccc(C)c(C)c4)cs3)cc2)no1	12%	-4	-5.2	3.8%	-11	-11	-5
O=C(O)c1cccc(-n2sc3ccccc3c2=O)c1	/	-3	1.0	-1.8%	0	-10	-1
C=CCn1cc(C(=O)NCCCOC)c(=O)c2cc(S(=O)(=O)N(CC)CC)ccc21	-4%	-8	-3.1	2.7%	-1	-9	-2
C=CCn1c(=S)[nH]c2ccc(Br)cc2c1=O	13%	-7	-4.1	-1.0%	-3	-12	-5
N#Cc1ccc(OCC(=O)OCC(=O)NCCC2=CCCCC2)cc1	3%	-1	-1.5	5.9%	0	-12	3
CC1(c2ccc([N+](=O)[O-])cc2)NC(=O)NC1=O (stereo not drawn)	9%	7	-5.6	0.0%	5	-4	-6
Cc1ccc(Cl)c(OCC(=O)NC2CCN(Cc3ccccc3)CC2)c1	/	1	-2.6	0.0%	-8	-7	-4
Cc1ccc([C@H]2C[C@@H](O)[C@H](n3cc(COC(=O)c4ccccc4)nn3)CN2Cc2cccs2)cc1	/	/	-7.4	7.4%	1	-1	-19
COc1ccccc1OCCOCCOc1c(C)cc(C)cc1Br	-1%	2	-4.8	9.0%	62	-14	81
CC(=O)N1CCN(C(=O)c2ccc3c(c2)OCO3)CC1	/	/	0.6	-0.5%	3	-5	4
COC(=O)c1ccc(NC(=O)c2cn(-c3ccccc3)nc2-c2ccncc2)cc1	4%	11	3.9	7.1%	-11	-13	-2
Cc1ccc(-c2nc(N)nc(N)n2)c(C)c1	/	-3	0.4	1.5%	4	1	2
O=C1NC(Cc2ccccc2)c2nc3ccc(Cl)cc3c(=O)n2-c2cc3ccccc3cc21 (stereo not drawn)	/	/	-9.3	8.8%	-8	2	-15
COc1ccc([C@H]2CC(=O)C=C(c3cc4ccccc4s3)C2)cc1OC	/	7	-6.7	4.2%	-27	-6	-23
COc1ccccc1CCC(=O)OCC(=O)NCc1ccc(OC)c(OC)c1	/	/	-0.8	0.9%	-1	-2	6
CCCN1CCN(C(=O)Cn2ncc3c([nH]c4ccc(C)cc43)c2=O)CC1	16%	-15	-1.4	0.4%	5	-3	-12
NC(=O)NC(=O)COC(=O)c1ccccc1Oc1ccccc1	-20%	4	-0.9	-1.0%	0	-4	3
CC(C)CCN(C(=O)c1cn2ccccc2n1)c1c(N)n(Cc2ccccc2)c(=O)[nH]c1=O	/	17	2.9	4.1%	-5	9	-21
COc1cccc(C(c2nnnn2Cc2ccco2)N2CCN(Cc3ccccc3)CC2)c1OC (stereo not drawn)	-26%	-6	-2.4	0.3%	-5	-10	5
CC(C)Oc1ccc(NC(=O)CCC(=O)O)cc1	5%	6	-1.6	1.7%[38.3 µM]	4	-9	7
CCn1c(CNC(=O)C2CCCCC2)cc2cc(C)ccc21	-9%	1	-3.0	0.8%	0	-8	0
O=C(CCC(=O)c1ccc(F)cc1)NCc1ccccc1C(F)(F)F	19%	-4	9.2	2.1%	3	-6	8
C[C@@H]1CCCCO[C@H](CN(C)C(=O)Nc2ccc(F)cc2)[C@@H](C)CN([C@H](C)CO)C(=O)c2cc(N(C)C)ccc2O1	/	/	-8.4	0.3%	-5	5	1
COc1ccc(-c2nnc(NC(=O)Cc3ccccc3)s2)c(OC)c1	3%	3	-1.6	1.9%	12	-8	8
O=C(NC1CC1)C1=C[C@@H](c2ccc(Br)cc2)C[C@@H](OCCCCO)O1	22%	13	-1.7	1.0%	4	-6	-1
COc1cc(/C=C/C(=O)N2CCN(c3ccccn3)CC2)cc(OC)c1OC	14%	5	-0.1	0.8%	-5	-1	-11
O=C(NCc1ccco1)c1cccc(NC(=O)c2ccccc2)c1	8%	4	0.4	/	-4	-18	-17
CC(=O)Nc1c(C(=O)c2ccccc2)oc2ccccc12	18%	-3	1.0	/	14	-16	15
CCOc1ccc(-c2nonc2NC(=O)c2ccco2)cc1OCC	7%	-1	?	0.5%&1.7%	0	3	2
CSCc1c(C(=O)Nc2ccccc2N2CCOCC2)oc2ccccc12	/	-5	-2.6	4.7%	-1	-10	-13
CC(C)c1ccc(NC(=O)NCc2ccc3c(c2)OCO3)cc1	4%	-10	1.3	1.9%	-3	-36	-2
O=c1cc(O)n(-c2ccc(Cl)cc2)c(=S)[nH]1	50µM*	-4	-4.4	-1.9%	-1	-43	-5
Cc1ccc(CC(=O)O/N=C(\N)Cc2ccc([N+](=O)[O-])cc2)cc1	6%	-10	6.7	1.7%	5	12	3
O=C(CSc1ncc(C(F)(F)F)cc1Cl)N1CCNC1=O	/	/	3.5	0.4%	-6	1	/
C[C@@H]1CN([C@H](C)CO)C(=O)CCCn2nncc2CO[C@@H]1CN(C)S(=O)(=O)c1ccc(Oc2ccccc2)cc1	/	/	2.0	0.8%	-7	/	2
COc1ccccc1N1CCN(CC(=O)c2ccc(F)cc2)CC1	40µM*	8	0.0	3.3%	-2	-77	/
CN1CCc2c(c3c(n2C)CCN(C)[C@@H]3c2cccnc2)[C@H]1c1cccnc1	-2%&4%	10&11	-3.8	1.3%	1	-2	-3
NC1=NC(=O)/C(=C\c2cccs2)S1	3%	5	-2.0	-0.3%	-5	-17	-10
Clc1cc(Br)ccc1OCCOCCN1CCOCC1	-24%	?	-1.4	-0.8%	10	-35	-4
Cc1cccc(C)c1NC(=O)c1cccc(N2C(=O)C3CCC(C)CC3C2=O)c1 (stereo not drawn)	11%	9	-3.8	1.0%	26	-7	0
CC(=O)Nc1cccc(C(=O)Nc2ccc(S(=O)(=O)N3CCCCC3)cc2)c1	/	2	0.4	2.3%	-11	12	-6
CCc1ccc(N(C(=O)CNC(=O)c2ccco2)C(C(=O)NC2CCCC2)c2cccnc2)cc1 (stereo not drawn)	-3%	-5	-3.6	5.5%	0	-6	7
CCOc1ccc(Cl)cc1-c1cc(C(=O)Nc2cc(OC)ccc2OC)[nH]n1	/	/	-4.0	2.8%	-17	-2	1
C[C@H]1CN=C(N(C)C)N1CC1CCCCC1	/	-2	-2.3	0.9%	1	-6	5
COc1ccccc1N1CCN(C(=O)c2cc3sccc3n2C)CC1	-18%	-16	-4.2	0.0%	-19	14	-17
CCOc1ccc(NC(=O)NCCCN2CCCC2)cc1	15%	9	-2.1	-0.7%	-4	-13	-3
C=CCNC(=O)c1c(C(F)(F)F)nn(C)c1Cl	9%	27	-0.8	-0.4%	2	0	-8
CC1CCN(S(=O)(=O)c2ccc3c(c2)NC(=O)CS3)CC1	14%	-10	1.1	-1.4%	1	25	10
CCN(CC)S(=O)(=O)c1ccc(C(=O)NCCCN=C2NS(=O)(=O)c3ccccc32)cc1	24%	4	-0.8	-0.4%	1	-17	-2
Cc1cc2cc(CNC(=S)Nc3ccc(OC(F)F)cc3)ccc2[nH]1	-1%	-5	6.0	3.6%	-12	-6	0
Cc1ccc(S(=O)(=O)NN=CC2(c3ccccc3)CC2)cc1	/	/	7.2	-0.3%	-3	-3	3
COc1ccc(NC(=O)O/N=C2/CCCc3ccc(OC)cc32)cc1	7%	-8	1.7	-0.9%	-5	-20	-8
COC(=O)NC1CSCC1OC(=O)c1ccc(Br)cc1 (stereo not drawn)	10%	-1	-0.8	-1.4%	-3	-2	4
COc1ccc(NC(=O)c2cc(-c3ccco3)on2)cc1OC	-18%	3	-4.1	0.8%	-10	-8	-8
COc1ccc2c(c1)-c1c(ssc1=S)C(C)(C)N2C(=O)CSC1=NCCS1	13%	-3	-6.7	-1.5%	?	-25	?
CC(C)C[C@H]1CNC(=S)N1CC1CCCN1C[C@H](CC(C)C)N1C[C@H](Cc2ccccc2)N(CC2CCCCCC2)C1=S (stereo partly drawn)	/	/	-3.5	0.7%	1	-4	8
Other entries:
SMILES	Sfp PPTase inh	TRPV1 PAM	D2 ag	PINK1 modulator	Six1-Eya2 blk	D2 PAM	CtBP-E1A blk
CC(O)(C#CCN1CCCC1)c1ccccc1 (stereo not drawn)	3%	4	-3.5	/	3	-24	12
OC(COc1ccc(OCC(O)CN2CCCCC2)cc1)CN1CCCCC1 (stereo not drawn)	16%	?	1.2	-1.3%	8	-59	/
CC(C)(C)C(=O)NC(=O)Nc1ccccc1C(F)(F)F	4%	-9	-0.5	2.9%	6	-1	-3
COc1cc(C(=O)OCC(=O)N(CC(C)C)C2CCS(=O)(=O)C2)cc(OC)c1C (stereo not drawn)	/	10	-0.1	2.0%	-2	0	4
C[C@H](CO)N1C[C@H](C)[C@@H](CN(C)S(=O)(=O)c2ccccc2)Oc2c(NC(=O)NC3CCCCC3)cccc2C1=O	/	/	-4.4	3.4%	-11	-3	-18
O=C(NCCN1C(=O)S/C(=C\c2ccc(Cl)cc2Cl)C1=O)C1=COCCO1	/	7	-3.5	8.4%	-8	3	?

Sorted by count of non-hydrogen atoms (largest number first): part of the list above.
SMILES	Sfp PPTase inh	TRPV1 PAM	D2 ag	PINK1 modulator	Six1-Eya2 blk	D2 PAM	CtBP-E1A blk
COc1cc(C(=O)OCC(=O)N(CC(C)C)C2CCS(=O)(=O)C2)cc(OC)c1C (stereo not drawn)	/	10	-0.1	2.0%	-2	0	4
CC(C)(C)C(=O)NC(=O)Nc1ccccc1C(F)(F)F	4%	-9	-0.5	2.9%	6	-1	-3
CC(O)(C#CCN1CCCC1)c1ccccc1 (stereo not drawn)	3%	4	-3.5	/	3	-24	12
